Compound activity from PubChem BioAssay.
PKD1 kinase inh – inhibitors of human PKD1 kinase. Q15139. PKD1 kinase fluorescence polarization assay. inhibition, %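 (about 10 µM by stock and volumes)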. 0.056% of 200,000 active. AID 797;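 active means inhibition of 50% or more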;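 further: controls were vehicle for no effect and a reference inhibitor for full effect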
RGS16-Gao HTS – modulates binding between human RGS16 and Galphao; O15492+P09471; bead-based flow cytometry RGS16-Galphao binding, fluorescence; actives lie on both sides; binding response (% of control), % at 10 µM; 0.38% of 220,000 active; AID 1441;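 active means below 25% or above 175%, edge rows of some plates excepted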;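 further: Galphao activated by GDP with aluminum fluoride before binding; 100% = wells without compound and 0% = beads without RGS; some results beyond the cut were filed as inactive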
Target sequence (O15492 whole entry, looked up): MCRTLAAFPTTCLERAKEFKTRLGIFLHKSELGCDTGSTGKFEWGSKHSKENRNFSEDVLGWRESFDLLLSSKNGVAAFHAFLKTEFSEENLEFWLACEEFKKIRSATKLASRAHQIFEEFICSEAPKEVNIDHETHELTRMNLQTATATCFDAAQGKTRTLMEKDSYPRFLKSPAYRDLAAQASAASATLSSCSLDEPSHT
Target sequence (P09471 whole entry, looked up): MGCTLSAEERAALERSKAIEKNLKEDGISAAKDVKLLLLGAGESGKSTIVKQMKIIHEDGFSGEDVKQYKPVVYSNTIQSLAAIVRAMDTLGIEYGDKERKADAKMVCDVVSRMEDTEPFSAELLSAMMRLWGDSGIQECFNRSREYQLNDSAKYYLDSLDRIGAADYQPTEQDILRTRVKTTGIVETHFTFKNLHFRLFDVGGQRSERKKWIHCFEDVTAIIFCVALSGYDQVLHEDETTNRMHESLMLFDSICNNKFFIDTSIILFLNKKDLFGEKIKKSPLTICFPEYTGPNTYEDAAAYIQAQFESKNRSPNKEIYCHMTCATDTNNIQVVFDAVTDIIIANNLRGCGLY
GALR2 ag – activates the human galanin receptor 2; O43603; GALR2-expressing cells, agonist activation read-out; activation, %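 (tested at 5 µM)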; 0.48% of 140,000 active; AID 803;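 active means above mean plus 3 SD of all compounds, about 5% in these data, not always enough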;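 further: 0% = vehicle buffer wells and 100% = reference agonist at full effect; tested in CHO reporter cells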
Target sequence (O43603 whole entry, looked up): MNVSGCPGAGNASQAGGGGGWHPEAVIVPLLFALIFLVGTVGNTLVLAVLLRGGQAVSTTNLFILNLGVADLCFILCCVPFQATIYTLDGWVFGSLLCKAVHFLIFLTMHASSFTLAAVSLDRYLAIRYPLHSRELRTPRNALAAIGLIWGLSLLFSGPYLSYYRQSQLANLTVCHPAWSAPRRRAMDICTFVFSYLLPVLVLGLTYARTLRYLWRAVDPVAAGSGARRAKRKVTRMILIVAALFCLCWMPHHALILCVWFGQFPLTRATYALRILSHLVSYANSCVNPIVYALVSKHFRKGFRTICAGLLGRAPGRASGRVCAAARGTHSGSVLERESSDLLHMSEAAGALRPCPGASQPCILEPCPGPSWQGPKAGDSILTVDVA
HSV augment – HSV replication enhancement | maximum fold increase | 0.005% of 220,000 active | AID 1956 | HSV replication augmentation in cells, fold increase;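 active means peak rise of 1.5-fold or more in the series; tested in PC3 cells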;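 further: first round at 10 µM; read as green reporter fluorescence; hits show the peak of a series up to 25 µM; 1 = signal of infected wells without compound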
INS promoter inh – TRM-6 insulin promoter activity inhibition; TRM-6 cells (human fetal islet line), insulin promoter-eGFP reporter, imaging; reporter expression induced with tamoxifen; inhibition, % at 2 µM; 0.9% of 130,000 active;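 active means inhibition above the mean plus 3 SD, with well images judged a real hit on visual review, cut at about 60% in these data, passing the limit was not always enough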
INS promoter inh cell count – further read-out of INS promoter inh, marked with its call; normalized cell count, %; measured here: cell count, toxicity; reference of the scale not given here;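 cells exposed to compound for 48 h; stained nuclei by imaging scaled within each plate; lower means fewer cells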
HSV augment primary fold – second read-out of HSV augment, no call of its own (marks repeat the call); fold increase; compound at 10 µM; measured here: primary screen fold increase 10 uM; tested in PC3 cells;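 GFP signal in the first replicate; 1 = infected wells without compound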
Starred values were filed as active, the others as inactive; i = inactive; . = not tested or not shown.

SMILES	PKD1 kinase inh	RGS16-Gao HTS	GALR2 ag	HSV augment	HSV augment primary fold	INS promoter inh	INS promoter inh cell count
O=C(Cn1ccc2ccccc2c1=O)NCC1COc2ccccc2O1 (centres undefined)	-12	94	1.2	i	0.87	20	42
NC(=O)CC(NC(=O)Cc1cccc2ccccc12)c1ccc(NC2CCCCCC2)c([N+](=O)[O-])c1 (centres undefined)	.	94	.	i	1	.	.
COc1ccccc1OCc1n[nH]c(=S)n1Cc1ccccc1	-2	99	.	i	1.1	-14	53
CCOC(=O)c1c(C)nc2ccccn12	-8	101	-2.1	i	0.84	.	.
CCOc1ccccc1NC(=O)c1cc(-c2ccncc2)nc2c(Cl)cccc12	1	106	.	i	0.81	.	.
CCOC(=O)Cn1c(=O)c2c(nc(N3CCOCC3)n2C)n(C)c1=O	-6	102	-2.2	i	1	.	.
C=CCOc1c(CNc2ccc3[nH]c(=O)[nH]c3c2)cccc1OC	-10	97	.	i	0.96	.	.
COc1ccc2[nH]c(=O)c(CN(C(=O)c3ccccn3)c3ccccc3)cc2c1	5	92	-0.7	i	1.1	-200	79
C=CCN1C(=O)/C(=C2/Sc3ccccc3N2C)SC1=Nc1c(C)n[nH]c1C	-2	111	2.2	i	1.1	-34	152
CCCc1cc(C(N)=O)c(NC(=O)c2cc(C)on2)s1	-3	92	-0.1	i	0.95	-81	108
CC1(CC(=O)NNC(=O)Nc2ccccc2)OCCCO1	-6	98	.	i	0.92	.	.
Nc1nnc(SCC(=O)NC23CC4CC(CC(C4)C2)C3)s1	-1	85	-1.3	i	0.92	-25	108

6 entries picked at random from those above:
SMILES	PKD1 kinase inh	RGS16-Gao HTS	GALR2 ag	HSV augment	HSV augment primary fold	INS promoter inh	INS promoter inh cell count
Nc1nnc(SCC(=O)NC23CC4CC(CC(C4)C2)C3)s1	-1	85	-1.3	i	0.92	-25	108
O=C(Cn1ccc2ccccc2c1=O)NCC1COc2ccccc2O1 (centres undefined)	-12	94	1.2	i	0.87	20	42
C=CCN1C(=O)/C(=C2/Sc3ccccc3N2C)SC1=Nc1c(C)n[nH]c1C	-2	111	2.2	i	1.1	-34	152
CCCc1cc(C(N)=O)c(NC(=O)c2cc(C)on2)s1	-3	92	-0.1	i	0.95	-81	108
CC1(CC(=O)NNC(=O)Nc2ccccc2)OCCCO1	-6	98	.	i	0.92	.	.
CCOC(=O)Cn1c(=O)c2c(nc(N3CCOCC3)n2C)n(C)c1=O	-6	102	-2.2	i	1	.	.

Other structures follow.
SMILES	PKD1 kinase inh	RGS16-Gao HTS	GALR2 ag	HSV augment	HSV augment primary fold	INS promoter inh	INS promoter inh cell count
CC1CN(S(=O)(=O)c2cccc(C(=O)OC/C(O)=C(\C#N)c3nc4ccccc4[nH]3)c2)CC(C)O1 (centres undefined)	4	102	0.8	i	0.94	24	90
Fc1ccc(-c2nnc(SCc3cccnc3)o2)cc1	-4	105	.	i	1	.	.
CCc1cccc(NC(=O)C(NC(=O)C2CCCCC2)C(C)C)c1 (centres undefined)	-3	97	.	i	0.84	-100	99
CCCCOc1ccc(C(=O)CCN2CCCCC2)cc1	-5	103	-0.3	i	0.81	33	106
COc1ccc(NC(=O)COC(=O)CNC(=O)C2CCCCC2)cc1	3	100	.	i	1	-42	114
Nc1c(Br)cc2oc(-c3ccccc3)nc2c1Br	-4	105	1.1	i	1.1	.	.
Oc1ccc(C=Nc2ccccc2-c2nc3ccccc3[nH]2)c(O)c1	-7	98	0.0	i	0.92	.	.
OC1(c2ccc(Cl)cc2)CCN(Cc2nc(-c3cnccn3)no2)CC1	-10	92	.	i	1.1	.	.
COc1ccc(NC(=O)C(=O)N2N=C(C(C)C)CC2(O)C(F)(F)F)cc1 (centres undefined)	-13	98	-3.5	i	1	7	69
COc1cc(C)ccc1OCCOCCOc1cccc2ccc(C)nc12	-2	92	.	i	0.95	15	114
CCCC(=O)NC(c1ccco1)c1c(O)ccc2ccccc12 (centres undefined)	-7	108	-4.7	i	1.2	-133	100
COc1ccc(-n2cc(-c3ccc(Br)cc3)[nH]c2=S)cc1	-4	100	.	i	0.86	.	.

Brought forward from above: 2 entries; new compounds follow.
SMILES	PKD1 kinase inh	RGS16-Gao HTS	GALR2 ag	HSV augment	HSV augment primary fold	INS promoter inh	INS promoter inh cell count
CCCC(=O)NC(c1ccco1)c1c(O)ccc2ccccc12 (centres undefined)	-7	108	-4.7	i	1.2	-133	100
COc1ccc(-n2cc(-c3ccc(Br)cc3)[nH]c2=S)cc1	-4	100	.	i	0.86	.	.
COc1ccccc1CNC(=O)CSCc1cnn(-c2ccccc2)c1-n1cccc1	-8	92	-0.5	i	1.1	-36	86
O=S(=O)(c1cccs1)N1CCCc2ccccc21	-15	110	-1.5	i	0.98	.	.
COCCNC(=O)c1ccc2c(c1)CCN2S(C)(=O)=O	-2	100	.	i	0.93	.	.
O=C(C1CCN(C2CCN(Cc3ccc4c(c3)CCO4)CC2)CC1)N1CCCC1	7	104	.	i	1	.	.
COc1cc(C(=O)Nc2ccc(S(=O)(=O)Nc3nccc(C)n3)cc2)cc(OC)c1OC	-1	91	-1.5	i	0.93	-90	23
CCN(c1ccccc1)S(=O)(=O)c1ccc(Cl)c(C(=O)NCCc2ccc(OC)cc2)c1	-5	104	-0.7	i	1	21	115
O=[N+]([O-])c1ccc2[nH]c(O)c(N=NC3CCS(=O)(=O)C3)c2c1 (centres undefined)	.	99	.	i	0.79	.	.
O=C(O)c1ccccc1OCc1ccccc1Cl	.	95	.	i	0.89	.	.
O=C(/C=C/c1cccs1)Nc1nccs1	1	102	.	i	0.85	.	.
CSc1ccc(C#N)cc1NC(=O)c1ccc(Cl)cc1Cl	-1	77	-2.7	i	0.83	-38	100
Cc1cc(Cl)ccc1Nc1ncccc1C(N)=O	13	106	-0.9	i	0.78	67	109
COC(=O)c1ccc(CSc2nc3c(c(=O)n2-c2ccc(Br)cc2)SCC3)o1	2	103	-0.5	.	.	43	113
CC(C)(C)c1cc[n+](/C(C(=S)Nc2ccccc2F)=C(/[O-])c2ccc3c(c2)OCCO3)cc1	-3	99	.	i	0.96	23	82
Cc1nc2nc(N)nn2c(C)c1C/C=C/c1ccccc1	-4	95	.	i	0.95	.	.
COc1ccccc1Cc1noc(COc2cccc(C)c2C)n1	-10	49	-1.5	i	0.8	-312	78
O=C(NC1CCCCC1)c1cccc(S(=O)(=O)N2CCOCC2)c1	-3	98	-0.9	i	0.9	14	94
CC(=O)Nc1scc(C)c1-c1nc2ccccc2s1	.	96	.	i	1	.	.
CCC(=O)c1cc2c(cc1NC(=O)c1cccs1)OCCO2	10	312	-1.7	i	0.98	80*	106*
COC(=O)Nc1snnc1C	2	103	-1.1	i	0.99	22	129
COc1ccc(-n2c(CN3CCC(C(N)=O)CC3)nc3ccc([N+](=O)[O-])cc3c2=O)c(OC)c1	1	89	.	i	0.96	.	.
COc1ccccc1-n1cnc(N)c1C(C)=O	-2	100	-0.8	i	1	-16	162
COc1ccc(NC(=O)c2ccc(-n3cccn3)c([N+](=O)[O-])c2)cc1	-5	101	.	i	0.92	.	.
CC(=O)NCCCc1nc2ccccc2n1Cc1ccccc1F	.	100	.	i	0.7	.	.
CC(C)(C)OC(=O)N1CCCC1C(=O)O (centres undefined)	-2	98	-0.2	i	0.97	46	63
Cc1nc2ccc(NC(=S)NC(C)C)cc2nc1C	-19	104	-1.7	i	0.94	.	.
CCOC(=O)c1cnn(-c2ccc(C(C)C)cc2)c1NC(=O)C1CCC1	-1	99	-1.4	i	1	-113	114
O=c1c2ccccc2nc(/C=C/c2cccnc2)n1CCc1ccccc1	.	101	.	i	0.87	.	.
COc1ccc(CC(=O)OCC(=O)NCCc2ccccc2)cc1OC	-7	105	-1.3	i	1.1	.	.
O=C1C(=O)N(CCN2CCOCC2)C(c2cccnc2)/C1=C(/O)c1ccccc1 (centres undefined)	-5	171	.	i	0.98	15	78
COc1cc(/C=N/NC(N)=S)ccc1OCC(=O)Nc1ccc(C)cc1	-4	-406	-0.7	i	1	32	86
CN(Cc1cccs1)c1nc(-c2cccnc2)nc2ccccc12	4	109	.	i	0.92	18	140
CCCOC(=O)c1ccc(NC(=O)c2ccccc2[N+](=O)[O-])cc1	3	106	.	i	0.91	.	.
O=C(O)c1ccc(/C=N/NC(=O)c2ccc(CN3c4cccc5cccc(c45)S3(=O)=O)cc2)cc1	.	106	.	i	1	.	.
CCn1c(=O)c(C(C)=O)nc2ccccc21	0	109	0.4	i	0.96	.	.
O=C(Cc1ccccc1)NN1C(=O)C2C3C=CC(C4CC34)C2C1=O (centres undefined)	-15	107	-0.8	i	0.98	-27	118
COc1ccc(C2(CNC(=O)c3ccc(OCC(C)C)cc3)CCOCC2)cc1	-8	100	0.3	i	1.1	.	.
Cc1c(NC(=O)Nc2ccc(Cl)cc2)c(=O)n(-c2ccccc2)n1C	15	101	-1.3	i	0.8	-55	101
CC1CCc2c(sc3nc(CN4CCOCC4)nc(Sc4ccccc4)c23)C1 (centres undefined)	2	115	-0.2	i	0.82	.	.
Cc1cc(C)nc(SCC(=O)Nc2nonc2N)n1	10	100	.	i	1.1	-31	122
COc1ccc(Nc2ncc(C(=O)O)c3ccccc23)cc1	1	107	-0.9	i	0.7	39	127
O=C(CCCCCCN1C(=O)c2ccccc2C1=O)N1CCC(c2ccccc2)C1 (centres undefined)	2	100	-0.7	i	0.88	-311	52
O=C(/C=C/c1ccc(Br)cc1)c1ccco1	7	47	-2.0	i	0.95	18	72
CN(C)c1ccc(C(CNC(=O)c2ccc(F)cc2)c2c[nH]c3ccccc23)cc1 (centres undefined)	-14	113	-1.5	i	0.83	19	68
Cc1ccc2[nH]c(=O)c(-c3nc4ccccn4c3NCc3ccco3)cc2c1	5	163	-0.8	i	0.78	21	146
C=CCN1C(=O)C(Cc2ccccc2)SC1=Nc1ccc(C(=O)O)cc1 (centres undefined)	-4	100	-0.6	i	0.91	32	127
CCOc1ccc(NC(=O)CC2C(=O)N(c3ccc(OC)cc3)C(=O)N2CCc2cccs2)cc1 (centres undefined)	-6	134	-0.1	i	1	6	99
Cc1ccc(N(C(=O)CCC(=O)Nc2cc(C)on2)C(C(=O)NC2CCCC2)c2cccs2)cc1 (centres undefined)	-4	98	-0.9	i	0.98	-37	115
CCCN1C(=O)SC(CC(=O)Nc2cccc3ccccc23)C1=O (centres undefined)	-10	100	-2.0	i	1	-72	35
Cc1ccc([N+](=O)[O-])cc1N/C=C/C(=O)c1ccco1	-3	102	-1.9	i	0.77	.	.
COc1ccc(Cn2c(=S)[nH]c3cc(OC)c(OC)cc3c2=O)cc1	-5	98	.	i	1	.	.
COc1cc2c(cc1OC)C(C)N(S(=O)(=O)c1cn(C)c(C)n1)CC2 (centres undefined)	.	93	.	i	1	.	.
Cc1ccc(SCc2[nH]nc3c2C(c2ccco2)C(C#N)=C(N)O3)cc1 (centres undefined)	2	98	-2.3	i	0.99	-56	98
COC(=O)C1=C(C)N(C)C(C)=C(C(=O)OC)C1c1ccccn1	-6	102	-2.2	i	1	.	.
Cc1ncc2c(c1OC(=O)c1ccc([N+](=O)[O-])cc1)COC(C)(C)OC2	-13	95	-1.3	i	0.93	-29	46
Cc1ccc(C)c(NC(=O)Cn2nc(C(F)(F)F)cc2C2CC2)c1	2	99	-1.5	i	1.2	-46	99
CCOc1ccc(-c2n[nH]c(C)c2Oc2ccc(OC)cc2)c(O)c1	5	104	-3.1	i	0.96	.	.
O=C(Cc1ccccc1)N/N=C/c1cc(Br)c(Br)o1	6	106	-1.9	i	1	-57	125
CSc1ncccc1C(=O)Nc1ccc(S(=O)(=O)NC2=NCCCCC2)cc1	-2	102	.	i	0.94	.	.
Cc1ccc(N2CC(C(=O)Nc3ccc(N(C)C)cc3)CC2=O)cc1C (centres undefined)	14	132	-1.8	i	0.86	-33	103
Cn1cc(/C=N\NC(=O)C2COc3ccccc3O2)c2ccccc21 (centres undefined)	-7	98	-0.4	i	0.7	24	87

(continued)
SMILES	PKD1 kinase inh	RGS16-Gao HTS	GALR2 ag	HSV augment	HSV augment primary fold	INS promoter inh	INS promoter inh cell count
COc1ccccc1CC(Cc1nc2ccccc2[nH]1)c1nc2ccccc2[nH]1 (centres undefined)	11	112	.	i	1	.	.
Cn1cc(CN2CCCC(CO)(Cc3cccc(Cl)c3)C2)cn1 (centres undefined)	3	102	.	i	1	.	.
S=C(NC1CCCCC1)N(CCc1nc2ccccc2[nH]1)C1CCCC1	0	104	-3.9	i	1.1	-45	128
CC(=O)c1ccc(NC(=O)CN2C(=O)COc3ccc(Cl)cc32)cc1	-14	102	-2.7	i	0.92	.	.
Nc1cc(=O)[nH]c(SC/C=C/c2ccccc2)n1	7	99	-1.2	i	0.73	-14	80
COc1cc(NC(=O)CCc2nc(-c3cccs3)no2)cc(OC)c1OC	1	100	-1.6	i	0.89	28	80
